MT1-MMP reporter – inhibitors of MT1-MMP promoter transcription, cell-based, luciferase reporter, luminescence (AID 618); 87,000 compounds, 0.62% hits; MT1-MMP promoter luciferase reporter cells, luminescence; calls from a first round at 10 µM; hits with a dose series show EC50 in µM;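 active means over half of the reporter light lost at 10 µM or EC50 under 50 µM; inactive means the rest and hits that failed the dose series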;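 further: actives suppress MT1-MMP promoter-driven transcription so potencies describe inhibitors; HT1080 fibrosarcoma cells; overnight exposure; toxic or luciferase-blocking compounds were not removed from the actives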
Hsc70 – small molecules displacing fluorescent ligand from Hsc70 – biochemical, fluorescence polarization, primary screen (AID 568) | Hsc70 fluorescence polarization, probe displacement; higher % means a stronger effect; strong numbers were not always called active | displacement, % at 20 µM, or IC50 in µM where a hit was titrated | 83,000 tested, under 10 active;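 active means displacement above 50% without optical interference and an IC50 on retest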;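 further: ATPase domain with a fluorescein-tagged ATP probe; 0% = vehicle and 100% = excess ADP; read after one hour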
WNV protease inh – WNV NS2B-NS3 proteinase inhibition; P06935; WNV NS2B-NS3 protease, fluorogenic substrate Ex360/Em465; active compounds read low; z-score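 (tested at a level between 10 and 100 µM)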; 65,000 compounds, 0.18% hits; AID 577;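 active means z-score at -3 or under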;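 further: score is relative to mean and spread of the compound wells of a plate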
Target sequence (P06935 1371-1501 limits assumed): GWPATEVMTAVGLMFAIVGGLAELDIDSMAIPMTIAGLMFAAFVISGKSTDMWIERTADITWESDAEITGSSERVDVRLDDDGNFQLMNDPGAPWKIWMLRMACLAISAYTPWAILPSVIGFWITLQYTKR
Target sequence (P06935 1502-1679 limits assumed): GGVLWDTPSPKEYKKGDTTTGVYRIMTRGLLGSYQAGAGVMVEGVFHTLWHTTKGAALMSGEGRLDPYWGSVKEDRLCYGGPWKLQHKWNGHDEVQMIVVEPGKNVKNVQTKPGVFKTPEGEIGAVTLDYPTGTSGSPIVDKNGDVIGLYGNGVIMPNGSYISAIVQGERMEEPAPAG
Starred values were filed as active, the others as inactive; i = inactive; x = no result given. These rows are one share of the data. The share of hits here may be higher or lower than overall.

SMILES	MT1-MMP reporter	Hsc70	WNV protease inh
O=C(NCCN1CCOCC1)c1ccc(Cl)cc1	i	0.9%	-0.79
O=C(O)CCCCCCCC(=O)O	i	-3.8%	x
CN1CCC(=C2c3ccccc3CC(=O)c3sccc32)CC1	i	-3.8%	-1.5
CN1CCN(c2c(F)cc3c(=O)c(C(=O)O)cn4c3c2SCC4)CC1	i	-1.6%	1.5
Cc1oncc1C(=O)Nc1ccc(C(F)(F)F)cc1	5.7µM*	2.0%	0.15
COc1ccc(S(=O)(=O)Nc2nnc(CC(C)C)s2)cc1	i	-0.6%	x
OCC(O)CN1CCN(c2ccccc2)CC1 (centres undefined)	i	-3.8%	0.46
CCCN(CCC)C(=O)C(CCC(=O)O)NC(=O)c1ccccc1 (centres undefined)	i	-7.7%	-1.3
CN(C)CCOC(=O)C(c1ccccc1)C1(O)CCCC1 (centres undefined)	i	2.0%	-0.14
CC(=O)O[C@@]12CO[C@@H]1C[C@H](O)[C@@]1(C)C(=O)[C@H](O)C3=C(C)[C@@H](OC(=O)[C@H](O)[C@@H](NC(=O)OC(C)(C)C)c4ccccc4)C[C@](O)([C@@H](OC(=O)c4ccccc4)[C@H]21)C3(C)C	i	-1.9%	0.23
O=C1CCc2cc(OCCCCc3nnnn3C3CCCCC3)ccc2N1	i	3.0%	-0.04
CCCc1cc(C(N)=S)ccn1	i	-4.9%	0.37
CCN(CC)CCOC(=O)C(c1ccccc1)c1ccccc1	i	-3.8%	-0.43
OCCOCCN1CCN(C(c2ccccc2)c2ccc(Cl)cc2)CC1 (centres undefined)	i	0.1%	-0.08
COc1cc(C(=O)NCCCCCC(=O)O)cc(OC)c1OC	i	-4.3%	-0.27
CCOC(=O)Nc1ccc2c(c1)N(C(=O)CCN1CCOCC1)c1ccccc1S2	i	-1.7%	-0.05
O=C(c1ccccc1)c1ccc2n1CCC2C(=O)O (centres undefined)	i	-3.8%	-0.91

Entries listed so far containing fluorine (2):
SMILES	MT1-MMP reporter	Hsc70	WNV protease inh
CN1CCN(c2c(F)cc3c(=O)c(C(=O)O)cn4c3c2SCC4)CC1	i	-1.6%	1.5
Cc1oncc1C(=O)Nc1ccc(C(F)(F)F)cc1	5.7µM*	2.0%	0.15

Reprinted at random: 2 compounds from above
SMILES	MT1-MMP reporter	Hsc70	WNV protease inh
OCCOCCN1CCN(C(c2ccccc2)c2ccc(Cl)cc2)CC1 (centres undefined)	i	0.1%	-0.08
CC(=O)O[C@@]12CO[C@@H]1C[C@H](O)[C@@]1(C)C(=O)[C@H](O)C3=C(C)[C@@H](OC(=O)[C@H](O)[C@@H](NC(=O)OC(C)(C)C)c4ccccc4)C[C@](O)([C@@H](OC(=O)c4ccccc4)[C@H]21)C3(C)C	i	-1.9%	0.23

3 structures already listed, sorted by SMILES length, largest number first.
SMILES	MT1-MMP reporter	Hsc70	WNV protease inh
O=C1CCc2cc(OCCCCc3nnnn3C3CCCCC3)ccc2N1	i	3.0%	-0.04
COc1cc(C(=O)NCCCCCC(=O)O)cc(OC)c1OC	i	-4.3%	-0.27
O=C(O)CCCCCCCC(=O)O	i	-3.8%	x

Molecules from the list above that have a Cl atom:
SMILES	MT1-MMP reporter	Hsc70	WNV protease inh
O=C(NCCN1CCOCC1)c1ccc(Cl)cc1	i	0.9%	-0.79
OCCOCCN1CCN(C(c2ccccc2)c2ccc(Cl)cc2)CC1 (centres undefined)	i	0.1%	-0.08

Screens: PubChem, several laboratories
